# High-throughput results deposited in PubChem BioAssay by several laboratories.
# VCAM-1 down: suppression of endothelial VCAM-1 upregulation – cell-based, plate reader, pooled HUVEC, TNFa stimulus (AID 454); HUVEC TNFa-induced VCAM-1 surface immunofluorescence, plate reader; numbers were filed only for top-ranked candidate wells; inhibition, % at 5 µM; hit rate 0.2% among 10,000;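 active = compound among top-ranked inhibitors of TNF-induced VCAM-1 adhesion protein staining, with the hit upheld by image or statistical review; inactive = the rest, including hits rejected on review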;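 note: 0% = TNFa with vehicle and 100% = cells without TNFa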
# VCAM-1 up imaging: boosters of cytokine-driven VCAM-1 levels – imaging, high-content imaging, pooled HUVEC, TNFa stimulus (AID 457). Pooled HUVEC, TNFa-induced VCAM-1 immunofluorescence imaging; hits of this screen are not shown here. calls only. hit rate 0.2% among 10,000;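 active = a top-ranked rise in VCAM-1 staining upheld on image or statistical review; inactive = the rest, including candidates rejected on review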;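 note: compounds tested at 5 µM in the well; cells exposed to compound for 24 hours before fixing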
# FPRL1 ligand: binds the human formylpeptide receptor-like-1 FPRL1. inhibition, %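 (tested at 6.7 µM)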. FPRL1-expressing cells, fluorescent ligand binding inhibition, flow cytometry. hit rate 0.3% among 24,000;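 note: 0% = buffer alone and 100% = receptor blocker peptide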
# Target sequence (P25090 whole entry, looked up): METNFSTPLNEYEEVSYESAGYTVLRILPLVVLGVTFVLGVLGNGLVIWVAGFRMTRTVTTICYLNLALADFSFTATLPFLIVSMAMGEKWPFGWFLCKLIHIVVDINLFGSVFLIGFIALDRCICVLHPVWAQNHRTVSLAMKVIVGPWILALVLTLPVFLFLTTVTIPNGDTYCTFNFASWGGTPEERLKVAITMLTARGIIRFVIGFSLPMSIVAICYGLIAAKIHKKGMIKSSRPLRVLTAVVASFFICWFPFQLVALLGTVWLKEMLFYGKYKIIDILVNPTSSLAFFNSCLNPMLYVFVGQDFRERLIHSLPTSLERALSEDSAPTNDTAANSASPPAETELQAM
# VCAM-1 down imaging: suppression of endothelial VCAM-1 upregulation – imaging, high-content imaging, pooled HUVEC, TNFa stimulus (AID 456). HUVEC TNFa-induced VCAM-1 surface expression, immunofluorescence imaging; numbers were filed only for top-ranked candidate wells. one-dose inhibition, % at 5 µM; IC50 in µM for titrated hits. hit rate 0.2% among 10,000;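 active = top tenth filtered wells with inhibition above zero that passed visual or statistical confirmation; inactive = the rest, including hits rejected on review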;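 note: 0% = stimulated vehicle wells and 100% = unstimulated cells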
# FPR binder: ligands of human FPR, also counter-screen for FPRL1 ligands | P21462 | FPR-expressing cells, fluorescent ligand binding, flow cytometry | inhibition, %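 (tested at 6.7 µM)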 | hit rate 0.74% among 24,000 | AID 440;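 note: 0% = buffer wells and 100% = receptor blocker peptide wells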
# Target sequence (P21462 whole entry, looked up): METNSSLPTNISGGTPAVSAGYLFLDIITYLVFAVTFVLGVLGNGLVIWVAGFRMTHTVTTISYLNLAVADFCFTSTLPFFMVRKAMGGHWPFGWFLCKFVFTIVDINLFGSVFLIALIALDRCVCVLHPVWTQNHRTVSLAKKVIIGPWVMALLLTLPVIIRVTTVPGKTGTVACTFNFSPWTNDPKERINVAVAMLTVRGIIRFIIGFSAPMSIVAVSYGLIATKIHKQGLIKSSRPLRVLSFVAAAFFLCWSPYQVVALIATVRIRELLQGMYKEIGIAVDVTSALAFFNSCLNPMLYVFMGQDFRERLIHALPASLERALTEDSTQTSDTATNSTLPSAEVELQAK
# The depositor's hits bear a star; i = inactive; . = no result given.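 Rule for the calls, unless noted: active = mean above 30%; inconclusive = self-fluorescent; inactive = the rest.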 Only part of the results is shown (hit frequency here may not be typical).
SMILES,VCAM-1 down,VCAM-1 up imaging,FPRL1 ligand,VCAM-1 down imaging,FPR binder
CC1(C)Cc2noc(N)c2C(C)(C)N1OC(=O)c1ccccc1,i,i,-1.7,i,-7.8
CCOC(=O)N1CCC(NC(=O)CCc2cn(C)c3ccccc23)CC1,.,.,-1.2,.,9.3
CCCn1cnc2c(c1=O)c1nc3ccccc3nc1n2Cc1ccccc1OC,i,i,-4.1,i,-0.5
COc1cccc(C2CC(c3ccccc3OC)n3ncnc3N2)c1 (centres undefined),.,.,2.4,.,3.4
COc1ccc(NC(=O)CCN2CCN(S(=O)(=O)c3cc(Cl)ccc3OC)CC2)cc1,.,.,-17.1,.,1.9
Cc1nn(C)cc1/C=N/O,i,i,-2.6,i,-4.2
Nc1nc2n(n1)C(c1cccc(Br)c1)CC(c1ccc(F)cc1)N2 (centres undefined),i,i,-5.9,i,-2.9
Cc1cccc(N2CCN(C(=O)C3CCN(S(=O)(=O)c4cccc5nsnc45)CC3)CC2C)c1 (centres undefined),.,.,-0.3,.,-2.1
O=C(Cc1cccs1)Nc1ccccc1NC(=O)Cc1cccs1,i,i,9.3,i,8.8
CCOC(=O)C1CCN(C(=O)C2CCN(S(=O)(=O)CC)CC2)CC1,.,.,2.6,.,-1.3
COc1ccc(-c2nnc(SCC(=O)N3CCN(c4ccccc4)CC3)o2)cc1OC,.,.,-1.5,.,-1.6
CC(=O)Nc1cccc(Cl)c1C(=O)O,.,.,-0.2,.,-4.8
CCOC(=O)c1c(-c2ccc(-c3ccccc3)cc2)csc1NC(=O)C1C2CCC(O2)C1C(=O)O (centres undefined),.,.,20.3,.,0.3
O=C(Nc1cnc2ccccc2c1)c1cccnc1,.,.,2.9,.,2.9
O=c1c2cnn(-c3ccccc3)c2ncn1/N=C/c1ccncc1,i,i,-4.3,i,7.1
O=S(=O)(Nc1cccc2ncccc12)c1cccs1,i,i,39.2*,i,13.1
c1ccc(N2CCN(Cc3ccnc4ccccc34)CC2)cc1,i,i,1.0,i,-2.7
O=C(NCc1cccs1)c1cccc(N2CCCC2=O)c1,.,.,-2.7,.,-7.9
Nc1cccc2cnccc12,.,.,-3.0,.,2.0
Cc1ccc(C)c(N2CCN(C(=O)c3ccc(Cn4c(=O)[nH]c5ccccc5c4=O)cc3)CC2)c1,.,.,3.6,.,2.9
Cc1cc(C)c2c(n1)nn1c(C)c(CCC(=O)NCc3ccco3)c(C)nc21,.,.,6.5,.,0.7
COc1ccc(Cl)cc1S(=O)(=O)n1ccnc1C(C)C,.,.,4.6,.,2.4
CCC(CC)C(=O)N(c1ccc(F)cc1)C1C=CS(=O)(=O)C1 (centres undefined),.,.,1.1,.,-4.5
O=C(Nc1ccc(-c2noc(-c3cccs3)n2)cc1)c1cccnc1,i,i,-2.4,i,-4.2
O=C(NC1CCCCCC1)C1CCN(S(=O)(=O)c2cccc3cccnc23)CC1,.,.,1.8,.,1.2
Cc1ccc(C)c(Cn2c(=O)c3c(nc4n3CCN4Cc3ccco3)n(C)c2=O)c1,.,.,0.3,.,7.9
COc1cccc(NS(=O)(=O)c2ccc3[nH]cc(C(=O)NCCC(C)C)c(=O)c3c2)c1,.,.,-1.0,.,-0.4
Cc1ccc(C)c(N2CCN(C(=O)CCCn3c(=S)[nH]c4cc5c(cc4c3=O)OCO5)CC2)c1,i,i,-2.0,i,10.6
Cn1c(Cn2c(=O)sc3ccccc32)nnc1SCc1ccccn1,.,.,2.5,.,-1.1
Cc1cc(N2CCN(C3CCCCC3)CC2)nc2cccc(O)c12,.,.,15.3,.,3.3
CCOC(=O)N1CCN(S(=O)(=O)c2c(C)nn(C)c2C)CC1,.,.,2.4,.,-11.9
COCCNC(=O)C1CCCN(c2nn3c(=O)cc(C)nc3s2)C1 (centres undefined),.,.,1.3,.,-4.9
Cc1cccc(N2CCN(C(=O)c3cc4c(=O)n(C)c5ccccc5c4n3C)CC2)c1C,.,.,-2.3,.,1.8
CCc1c(C(=O)NCc2ccccc2Cl)[nH]c(C)c1C(C)=O,.,.,2.1,.,1.1
Cn1cccc1CNC(=O)Nc1ccc(Cl)cc1,.,.,6.3,.,15.3
CCCCNC(=O)CC1N=C2c3ccccc3N=C(SCC(=O)Nc3ccccc3OC)N2C1=O (centres undefined),.,.,-4.4,.,4.7
c1ccc(Oc2ccc(-n3cnnn3)cc2)cc1,i,i,5.0,i,1.2
Cc1ccc(S(=O)(=O)N(Cc2nccn2C)C(C)C)cc1,.,.,-1.1,.,0.8
Cc1ccc(CCNC(=O)C2CCC(=O)N2C2CCCC2)cc1 (centres undefined),i,i,2.6,i,-0.7
COc1cc2c(cc1OC)C(c1ccc3c(c1)OCO3)C1=C(CC(C)(C)CC1=O)N2 (centres undefined),.,.,3.1,.,7.8

# A different layout for part of the listing above.
# Screens in order: VCAM-1 down | VCAM-1 up imaging | FPRL1 ligand | VCAM-1 down imaging | FPR binder
CCOC(=O)N1CCC(NC(=O)CCc2cn(C)c3ccccc23)CC1
 : . | . | -1.2 | . | 9.3
CCCn1cnc2c(c1=O)c1nc3ccccc3nc1n2Cc1ccccc1OC
 : i | i | -4.1 | i | -0.5
COc1cccc(C2CC(c3ccccc3OC)n3ncnc3N2)c1 (centres undefined)
 : . | . | 2.4 | . | 3.4
COc1ccc(NC(=O)CCN2CCN(S(=O)(=O)c3cc(Cl)ccc3OC)CC2)cc1
 : . | . | -17.1 | . | 1.9
Cc1nn(C)cc1/C=N/O
 : i | i | -2.6 | i | -4.2
Nc1nc2n(n1)C(c1cccc(Br)c1)CC(c1ccc(F)cc1)N2 (centres undefined)
 : i | i | -5.9 | i | -2.9

# Further entries:
SMILES,VCAM-1 down,VCAM-1 up imaging,FPRL1 ligand,VCAM-1 down imaging,FPR binder
CCOc1ccc(/C(O)=C2/C(=O)C(=O)N(c3cc(C)on3)C2c2ccc(C(=O)OC)cc2)cc1 (centres undefined),.,.,6.4,.,1.0
CCOC(=O)N1CCC(c2cc(=O)n3[nH]c(C)c(-c4ccc(F)cc4)c3n2)CC1,i,i,1.1,i,29.7
COC(=O)c1ccc(C)c(NS(=O)(=O)c2ccc3c(c2)OCCO3)c1,i,i,-11.6,i,-5.2
COCCN1Cc2cccc(C(=O)Nc3ccc(S(=O)(=O)N4CCCCCC4)cc3)c2C1=O,.,.,-4.1,.,0.8
Cc1cc2c(c(=O)n1C)C(Cc1ccccc1)C(C#N)=C(N)O2 (centres undefined),i,i,0.1,i,14.7
O=C(CSc1nc(O)cc(=O)n1-c1ccccc1)N1CCCCC1,i,i,-6.0,i,5.5
CCSc1nnc(-c2ccccc2NC(C)=O)c(=O)[nH]1,.,.,5.0,.,-2.4
CC1=C(C(=O)NCc2ccco2)C2(CCC(C)CC2)OC1=O (centres undefined),i,i,1.9,i,1.0
CCOC(=O)C1CCN(C(=O)CN(c2ccc(OC)cc2)S(=O)(=O)c2c(C)nn(C)c2C)CC1,.,.,-4.2,.,-3.0
O=C(NCCCN1CCOCC1)c1cc(-c2ccc3c(c2)OCO3)nc2ccccc12,.,.,0.6,.,-0.1
Cc1ccc(C)c(CSc2nnc(CCN)o2)c1,i,i,2.1,i,-4.0
O=C(CC(SCCO)c1ccc2c(c1)OCO2)c1ccco1 (centres undefined),i,i,2.2,i,-0.1
Cn1c(=O)c2ncn(CC(=O)NCCOc3ccccc3)c2n(C)c1=O,i,i,-5.2,i,16.6
O=C(NCC(=O)N(c1ccc2c(c1)OCCO2)C(C(=O)NC1CCCC1)c1ccco1)c1ccco1 (centres undefined),i,i,1.2,i,13.8
COc1ccc(C)cc1NC(=O)C1CCCN(S(=O)(=O)c2cccc3nonc23)C1 (centres undefined),.,.,4.5,.,1.1
O=C(c1cnn(-c2ccccc2)c1-n1cccc1)N1CCN(C2CCCCC2)CC1,.,.,4.6,.,-5.1
COc1ccc(-n2c(Cc3cccn3C)nnc2SCC(=O)Nc2ccccc2OC)cc1,.,.,-1.8,.,1.9
CCn1c(=O)cc(N2CCCCC2)[nH]c1=O,.,.,5.3,.,6.7
COc1cc(NC(=O)CN2CC(c3ccccc3)CC2=O)cc(OC)c1 (centres undefined),.,.,3.5,.,4.4
CC(=O)Nc1ccc(S(=O)(=O)N2CCC(NC(C)=O)(c3cccc(F)c3)CC2)cc1,i,i,4.5,i,3.0

# One compound at a time, as listed above:
# Cn1c(=O)c2ncn(CC(=O)NCCOc3ccccc3)c2n(C)c1=O as listed: VCAM-1 down = i; VCAM-1 up imaging = i; FPRL1 ligand = -5.2; VCAM-1 down imaging = i; FPR binder = 16.6
# Cc1cc2c(c(=O)n1C)C(Cc1ccccc1)C(C#N)=C(N)O2 (centres undefined) as listed: VCAM-1 down = i; VCAM-1 up imaging = i; FPRL1 ligand = 0.1; VCAM-1 down imaging = i; FPR binder = 14.7

# More records
SMILES,VCAM-1 down,VCAM-1 up imaging,FPRL1 ligand,VCAM-1 down imaging,FPR binder
Cc1c(C#N)c(N)c(C(=O)c2ccccc2)n1Cc1ccccc1,i,i,-0.2,i,-7.9
Cc1nc2nc(SCC(=O)NCc3ccco3)nn2c(C)c1Cc1c(F)cccc1Cl,.,.,4.2,.,8.4
N#Cc1c(/N=C/c2cccs2)sc2c1CCCCC2,i,i,-3.6,i,-6.7
O=C(NCc1ccccn1)C1CCN(S(=O)(=O)N2CCCC2)CC1,.,.,4.5,.,-9.4
CC(C)NC(=O)c1cc2c(-c3ccc(Cl)cc3)nn(C)c2s1,.,.,-0.3,.,-1.8
CCOC(=O)N1CCN(C(=O)c2oc3ccc(S(=O)(=O)N4CCOCC4)cc3c2C)CC1,.,.,1.4,.,-0.8
Cc1nn(C)c(C)c1S(=O)(=O)N1CCC(C(=O)NCCC2=CCCCC2)CC1,.,.,1.4,.,-10.4
COc1ccc(-c2nn(-c3ccccc3)cc2/C=N/n2cnnc2)cc1OC,i,i,-4.0,i,-2.8
O=c1c2ccccc2n(Cc2ccc(F)cc2)c(=O)n1C1CCCC1,.,.,1.1,.,-6.0
COc1ccc(CC(NC(=O)c2ccccc2)C(=O)NCC(=O)O)cc1 (centres undefined),.,.,-1.0,.,-5.5
COc1ccc2c(c1)[nH]c1c(=O)n(CCN(C)C)cnc12,i,i,4.9,i,2.9
Cc1cc(C)c(NC(=O)CSc2nnc(-c3ccncc3)n2Cc2ccco2)c(C)c1,i,i,4.4,i,7.1
CCC(C)NC(=O)C1CCCN(S(=O)(=O)c2ccc(-n3cnnn3)cc2)C1 (centres undefined),i,i,7.2,i,-2.5
CCOC(=O)Cc1c(C)nc2c(-c3cccc(Br)c3)c[nH]n2c1=O,.,.,-3.7,.,-3.6
NC(=O)CN1CCN(c2ccccc2F)CC1,.,.,5.4,.,-2.0
Cc1cccc(N2C(=O)SC(N(CC(=O)O)c3cccc(C)c3)C2=O)c1 (centres undefined),.,.,0.6,.,76.8*
O=C(O)CCc1ccc(-c2cccs2)n1CCC(=O)O,i,i,-1.5,i,2.6
CC(C)(C)C(=O)OCC1OC(n2cnc(C(N)=O)n2)C(O)C1O (centres undefined),i,i,-4.1,i,14.4
COC(=O)CCC(NC(=O)c1cc(-c2ccc3c(c2)OCCO3)oc1C)C(=O)OC (centres undefined),i,i,-2.4,i,-2.6
CCC(=O)N1c2ccc(S(=O)(=O)CCC(=O)NCc3ccc4c(c3)OCO4)cc2CC1C (centres undefined),.,.,1.9,.,7.1
COC(=O)c1ccccc1S(=O)(=O)NC(=O)c1ccccc1,i,i,-1.6,i,0.9
O=C(NCC(F)(F)F)Nc1cccnc1,i,i,2.8,i,-4.3

# Part of the list above, showing only VCAM-1 down imaging, FPRL1 ligand and FPR binder:
canonical_smiles,VCAM-1 down imaging,FPRL1 ligand,FPR binder
Cc1cc(N2CCN(C3CCCCC3)CC2)nc2cccc(O)c12,.,15.3,3.3
CCOC(=O)N1CCN(S(=O)(=O)c2c(C)nn(C)c2C)CC1,.,2.4,-11.9
COCCNC(=O)C1CCCN(c2nn3c(=O)cc(C)nc3s2)C1 (centres undefined),.,1.3,-4.9
Cc1cccc(N2CCN(C(=O)c3cc4c(=O)n(C)c5ccccc5c4n3C)CC2)c1C,.,-2.3,1.8
CCc1c(C(=O)NCc2ccccc2Cl)[nH]c(C)c1C(C)=O,.,2.1,1.1
Cn1cccc1CNC(=O)Nc1ccc(Cl)cc1,.,6.3,15.3
